VACV Venus inh – inhibitors of vaccinia virus (Venus reporter); Vaccinia virus Venus reporter expression, fluorescence; Potency, µM (titrated, usually from 36.5 µM), for the others: at the top dose activity change, negative = inhibition, most hits filed as inhibitors; hit rate 0.46% among 330,000; active means well fitted inhibition curve with a large enough effect; inconclusive means small, poorly fitted or top-dose-only effect; inactive means no such curve, though single readings can be large or run the other way; tested in A549 cells; further: nearly all actives have a fitted effect of over 30% in size; inactives centre near -10
Vaccinia mCherry – vaccinia inhibition (mCherry reporter); Potency, µM (series often up to 36.5 µM), for the others: at the highest dose activity change, negative = inhibition, actives largely listed as inhibitors; AID 720579; hit rate 0.63% among 310,000; Vaccinia virus mCherry reporter infection, fluorescence; about a quarter of the inactives have no number; active = well fitted inhibition curve with a large enough effect; inconclusive = small, poorly fitted or top-dose-only effect; inactive = no such curve, though single readings can be large or run the other way; tested in A549 cells; further: nearly all actives have a fitted effect of over 35% in size; inactives centre near -10
The depositor's hits bear a star; i = inactive; u = inconclusive; x = not tested or not shown; [ ] = remark or other dose. On the % scale 0 is the no-effect control and ±100 the full control effect; potency means the concentration at half of the fitted maximal effect.

SMILES	VACV Venus inh	Vaccinia mCherry
O=[N+]([O-])c1ccc(Cl)c(S(=O)(=O)Nc2ccc3cn[nH]c3c2)c1	7%	u
NS(=O)(=O)c1ccc(CCNC(=O)C2CCCN2C(=O)c2cccs2)cc1 (configuration not stated)	-8%	i
Nc1ccn(Cc2ccccc2F)n1	1%	-6%
Cc1cc(C(=O)N2CCOCC2)n(-c2ccccc2)n1	-6%	-2%
CC(=O)Nc1ccc(NC(=O)C(C)OC(=O)c2oc3ccccc3c2C)cc1 (configuration not stated)	-12%	-17%
CCS(=O)(=O)NCC(c1cccnc1)N1CCN(c2ccc(F)cc2)CC1 (configuration not stated)	-16%	-8%[1.46 µM]
S=c1[nH]ncn2c1cc1oc3ccccc3c12	-4%	-11%
CCCCn1c(SCC(=O)Nc2ccc(F)cc2)nc2c(sc3ccccc32)c1=O	-25%	-10%
O=C(COc1ccc(Br)cc1)OCCN1CCCCC1	4%	-14%
C/C(=N\NC(=O)C(C)Nc1cccc(Cl)c1)c1ccc([N+](=O)[O-])cc1 (configuration not stated)	-18%	u
O=C(CSc1nnc(Cc2ccccc2)o1)N1CCCC1	-1%	1%
O=C(COC(=O)c1ccccc1[N+](=O)[O-])Nc1nnc(-c2ccccc2)o1	3%	-15%
CCc1ccc(CN(C)C(=O)C2CCC(=O)N(CCCN3CCCC3=O)C2)cc1 (configuration not stated)	-12%	-1%
COc1ccc(N(CC(=O)NC(C)C)S(=O)(=O)c2ccc(NC(C)=O)cc2)cc1	-24%	-4%
CCOC(=O)C1=C(C)NC2=C(C(=O)CCC2)C1c1cccs1 (configuration not stated)	2%	x
CCC(C)SCC(=O)Nc1ccc(S(=O)(=O)N2CCOCC2)cc1OC (configuration not stated)	-20%	-13%
COc1ccc(NC(=O)COc2cccc(-n3cnnn3)c2)cc1Cl	-3%	-16%
Cc1nc2sccn2c(=O)c1Cl	-6%	-14%
COc1ccc(NC(=O)/C(Cl)=C(/Cl)S(=O)Cc2ccccc2Cl)cn1 (configuration not stated)	2.8µM*	2µM*
COc1cc(/C=N/NC(=O)c2ccncc2)ccc1OC(=O)c1cccc(Br)c1	-10%	-6%
O=C(COCc1cc(-c2ccc3c(c2)OCO3)on1)NCc1ccc(F)cc1	-5%	-15%
C/C(=N\NC(=O)C(=O)Nc1cccc(Cl)c1)c1ccncc1	1%	-10%
Cc1noc(C)c1COC(=O)CCC(=O)c1ccc(F)cc1	-6%	-14%
O=c1c(S(=O)(=O)c2ccc(Cl)cc2)cn(Cc2ccccc2)c2ccc(F)cc12	-9%	-12%

A draw from above in order of molecular weight, smallest number first:
SMILES	VACV Venus inh	Vaccinia mCherry
Cc1noc(C)c1COC(=O)CCC(=O)c1ccc(F)cc1	-6%	-14%
CCOC(=O)C1=C(C)NC2=C(C(=O)CCC2)C1c1cccs1 (configuration not stated)	2%	x
COc1ccc(NC(=O)COc2cccc(-n3cnnn3)c2)cc1Cl	-3%	-16%
CCc1ccc(CN(C)C(=O)C2CCC(=O)N(CCCN3CCCC3=O)C2)cc1 (configuration not stated)	-12%	-1%
CCC(C)SCC(=O)Nc1ccc(S(=O)(=O)N2CCOCC2)cc1OC (configuration not stated)	-20%	-13%
COc1ccc(N(CC(=O)NC(C)C)S(=O)(=O)c2ccc(NC(C)=O)cc2)cc1	-24%	-4%
COc1cc(/C=N/NC(=O)c2ccncc2)ccc1OC(=O)c1cccc(Br)c1	-10%	-6%

(further entries)
SMILES	VACV Venus inh	Vaccinia mCherry
CCNC(=O)CCSc1nc(C)cc(C)n1	-3%	-1%
CCCS(=O)(=O)NC(=O)C1(C)CCCN(C(=O)c2ccnc(Cl)c2)C1 (configuration not stated)	14%	i
Clc1cccc(OCCN2CCN(CCOc3cccc(Cl)c3)CC2)c1	-22%	-9%
Cc1ccc(NC(=O)c2cc(S(=O)(=O)NCCc3ccccc3)ccc2F)cc1Cl	u	u
COc1ccc(C)cc1S(=O)(=O)Nc1cccc(SC)c1	u	x
COc1ccc(C(C)=NNS(=O)(=O)c2ccc(C)cc2)cc1OC	1%	-10%
O=C(/C=C/c1cccs1)NCc1ccc2c(c1)OCO2	-16%	-14%
COc1ccc(C(=O)Oc2c(Sc3ccc(C)cc3)c(C)nn2C(C)(C)C)c(OC)c1	u	u
CCC(C)c1ccc(NC(=S)N2CCN(S(C)(=O)=O)CC2)cc1 (configuration not stated)	-7%	-22%
Oc1c(C(c2ccccc2F)N2CCCC2)sc2nc(-c3ccco3)nn12 (configuration not stated)	-13%	-5%
CCc1cc(/C=C/c2ccnc3ccccc23)ccc1N(C)C	12%	u
CC(Sc1nc(-c2ccc(F)cc2)cs1)C(=O)Nc1ccc(Cl)cn1 (configuration not stated)	-9%	-12%
COc1ccc(NC(=O)Cn2c(=O)ccc3cc(S(=O)(=O)N4CCCC4)ccc32)cc1Cl	-23%	-26%
COc1ccc(CNC(=O)C[C@H]2C(=O)N(C3CCCCC3)C[C@@H]2Cc2ccccc2)cc1	u	-16%
CCN1CCN(c2ccc(NC(=O)c3ccc(F)cc3)cc2Cl)CC1	-2%	i
CCc1nc2ccc(C(=O)NCCN3CCOCC3)cn2c1N(C=O)Cc1ccc(OC)cc1	-10%	i
Cc1ccc(Cl)cc1NC(=O)COC(=O)CSc1ccccc1	-4%	-21%
CC(CCc1ccccc1)NC(=O)Cn1c(=O)nc(-c2ccccc2)c2ccccc21 (configuration not stated)	-14%	-15%
C=CCNc1nc2ccccc2c(=O)[nH]1	-12%	-6%
Cc1ccc(Cl)cc1N1CCN(S(=O)(=O)c2cc3[nH]c(=O)c(=O)[nH]c3cc2C)CC1	-7%	-6%
CC(C)(C)n1ncc2c(=O)n(CC(=O)N3CCc4ccccc43)cnc21	-8%	-1%[1.46 µM]
Fc1ccccc1CSc1nc2ncc(Br)cc2[nH]1	u	x
CC(=O)OCC1OC(n2cnc3c(=O)[nH]cnc32)C(OC(C)=O)C1OC(C)=O (configuration not stated)	0%	14%
COc1ccc(N2CCN(Cc3nc4c(c(=O)[nH]c(=O)n4C)n3CC(C)C)CC2)cc1	-5%	-12%

Further structures
Values run as follows: VACV Venus inh	Vaccinia mCherry
Cc1c(NS(C)(=O)=O)c(=O)n(-c2ccccc2)n1C
 : -8%	-18%
Cc1ccc(S(=O)(=O)N(Cc2cccc([N+](=O)[O-])c2)C(=O)N2CCN(C)CC2)cc1
 : -16%	i
CCN(CC)Cc1c(O)ccc2c(=O)c(-c3ccc4c(c3)OCCO4)coc12
 : -6%	x
CCNC(=O)NC(=O)COC(=O)CCc1nc(=O)c2ccccc2n1C
 : -8%	-18%
O=C1C=C(c2ccc3c(c2)OCO3)C[C@@H](c2ccc(Cl)cc2)C1
 : -19%	i
Cc1[nH]c2ccc(-c3nnc(SCC(=O)N4CCCc5ccccc54)o3)cc2c1C
 : 2%	-10%
C=CC(=O)NC(NC(=O)C=C)c1ccccc1F
 : u	7.9µM*
COc1ccc(CCn2cc3c(c2-c2ccc(Br)cc2)c(=O)n(C)c(=O)n3C)cc1OC
 : -10%	-13%
CCCCn1c(N)c(-c2nc3ccccc3s2)c2c([N+](=O)[O-])nn(C)c(=O)c21
 : -5%	-17%
CCc1ccc(NC(=O)c2ccc(F)c(S(=O)(=O)NCC3COc4ccccc4O3)c2)cc1 (configuration not stated)
 : u	-22%
O=C(/C=C/c1cccc([N+](=O)[O-])c1)c1cccs1
 : -25%	-24%
CCSc1nnc(NC(=O)C2CCCN(C(=O)c3ccc(Cl)cc3)C2)s1 (configuration not stated)
 : -13%	5%
CC1(C)Cc2c(sc(NC(=O)C(=O)N3CCCC3)c2C(N)=O)CO1
 : -10%	-21%
CC1(C(=O)NS(=O)(=O)c2cccc(C#N)c2)CCN1C(=O)c1ccc(C2CCCCC2)cc1 (configuration not stated)
 : 24%	i
CCC(C)NC(=O)c1cc(Sc2cccc(Cl)c2)nc2ccccc12 (configuration not stated)
 : -8%	-9%
CCCCOc1ccc(CN(C)c2ncnc(N)n2)cc1
 : u	u
C/C(=N\NC(=O)c1cc(-c2ccc(Cl)s2)[nH]n1)c1ccncc1
 : -22%	-23%
COc1ccc(NC(=O)N/C=C/c2ccccc2)cc1
 : 2%	u
CCn1c(-c2ccccc2F)nc2cc(NC(C)=O)cc(C(=O)NCC3CCOCC3)c21
 : -13%	i
O=C(CSc1nc2ccccc2[nH]1)Nc1ccc(F)cc1
 : -23%	-2%
C=CCn1c(SCc2nc3c(c(=O)[nH]c(=O)n3CCCC)n2CCC)nnc1-c1ccccc1
 : -23%	x
N#Cc1c(-c2ccccc2)nc2n(-c3ccccc3)nc(C(=O)Nc3ccccc3)n2c1=O
 : -2%	x
O=C(c1cc2ccccc2o1)N1CCN(Cc2ccccc2)CC1
 : -16%	-5%
CC(C)Cn1c(=O)c2sccc2n2c(CCCC(=O)NCCc3ccccc3)nnc12
 : -11%	-7%
N#Cc1ccccc1OCC(=O)N1CCN(c2ccccc2F)CC1
 : 0%	-10%
COCCCn1c(C(=O)N2CC(C)OC(C)C2)cc2c(=O)n3cccc(C)c3nc21 (configuration not stated)
 : -2%	-15%
CN(C)c1ccc(CN(CC2CCCO2)C(=O)c2cc3ccccc3o2)cc1 (configuration not stated)
 : -9%	i
O=C(Nc1c[nH]c(=O)[nH]c1=O)c1ccc2c(c1)C(=O)N(c1cccc([N+](=O)[O-])c1)C2=O
 : -9%	i
C[C@@H]1CN([C@H](C)CO)C(=O)c2cc(NC(=O)Nc3ccc(F)cc3)ccc2O[C@@H](C)CCCCO[C@H]1CN(C)Cc1ccc(C(=O)O)cc1
 : -14%	-8%
Cc1sc2nc(SCC(=O)c3cc(C)n(CC4CCCO4)c3C)n(C(C)C)c(=O)c2c1C (configuration not stated)
 : -7%	-4%

Molecules shown so far with bromine (four):
Values run as follows: VACV Venus inh	Vaccinia mCherry
O=C(COc1ccc(Br)cc1)OCCN1CCCCC1
 : 4%	-14%
COc1cc(/C=N/NC(=O)c2ccncc2)ccc1OC(=O)c1cccc(Br)c1
 : -10%	-6%
Fc1ccccc1CSc1nc2ncc(Br)cc2[nH]1
 : u	x
COc1ccc(CCn2cc3c(c2-c2ccc(Br)cc2)c(=O)n(C)c(=O)n3C)cc1OC
 : -10%	-13%

The results go on.
Values run as follows: VACV Venus inh	Vaccinia mCherry
CCCc1nc2ccc(Br)cc2c(=O)n1-c1ccc([N+](=O)[O-])c(C(F)(F)F)c1
 : u	u
COC(=O)C1=C(c2ccc(F)cc2OCc2ccccc2)C[C@@H]2CC[C@H]1N2C(=O)NCCNC(C)=O
 : -15%	-27%
Cc1c(C(=O)NCc2cccnc2)sc2nc(-c3ccccc3)cn12
 : -24%	i
CCOc1ccc(NC(=O)CCC(=O)NNC(=O)NC2CCCCC2)cc1
 : -10%	0%
COc1ccc(N2C(=O)CCC(C(=O)N3CCC(C(N)=O)CC3)C2c2ccc(F)cc2)cc1 (configuration not stated)
 : -4%	-12%
Cc1nnc(SCC(=O)Nc2cccc(S(=O)(=O)N(C)c3ccccc3)c2)s1
 : -22%	-4%
COc1ccc(/C=C/C(=O)O/N=C(\N)c2ccccn2)cc1OC
 : -10%	-23%
Cc1ccc2oc(C(=O)NCc3ccccc3)cc(=O)c2c1
 : -8%	-7%
CCOC(=O)c1c(-c2ccc(OC)cc2)oc2ccc(OCc3ccccc3C)cc12
 : 7%	4%
O=C(Nc1ccsc1C(=O)O)c1ccc(Cl)cc1
 : u	-24%
CCCC(=O)NC(Nc1cc(C(F)(F)F)ccc1Cl)C(Cl)(Cl)Cl (configuration not stated)
 : u	u
Cc1c(CC(=O)NCCc2ccccc2F)c(=O)oc2cc(O)c(Cl)cc12
 : -4%[7.34 µM]	-6%[7.34 µM]
N#Cc1c(NC(=O)CCC(=O)O)sc2c1CCCC2
 : 3%	x
CC1CN(C(=O)Cn2cnc3c2c(=O)n(C)c(=O)n3C)CC(C)O1 (configuration not stated)
 : 1%	-12%
CC(OC(=O)c1ccc(S(=O)(=O)N2CCOCC2)cc1)c1ccccc1 (configuration not stated)
 : -12%	i
CN(CC(=O)Nc1cccc(F)c1)C(=O)CN1C(=O)NC2(CCCCC2)C1=O
 : -8%	-18%
O=C(CCCN1C(=O)/C(=C/c2ccco2)SC1=S)Nc1ccccc1
 : 7%	-12%
CCCSCCCNC(=O)C1CCCN(c2nn3cc(-c4ccc(OC)cc4)nc3s2)C1 (configuration not stated)
 : -26%	u
COc1ccc([N+](=O)[O-])cc1NC(=O)CC(C)c1ccccc1 (configuration not stated)
 : -20%	-30%
COc1cc(/C=C/C(=O)N2CCOCC2)ccc1OCc1ccccc1
 : -5%	i
CCOC(=O)c1c(-c2ccccc2)csc1NC(=O)CCN1C(=O)c2ccccc2C1=O
 : -10%	-6%
Cc1cc2oc3ccc(NCCCn4ccnc4)cc3c(=O)c2cc1C
 : u	i
O=C(CN1CCCC1)Nc1ccc(Cl)cc1C(=O)c1ccccc1
 : -7%	-15%
COc1ccc(CNC(=O)CSc2nnnn2Cc2ccccc2)cc1
 : -29%	u
COc1ccc(OC)c(Nc2nc(-c3cccs3)cs2)c1
 : -27%	-18%
CCS(=O)(=O)N1CCc2cc(C(=O)NCc3ccc(C)cc3)ccc21
 : -3%	-14%
COC(=O)CCCC1=CC2=C(c3ccccc3)C(=O)C(C)(OC(=O)C3CCCC3)C(=O)C2=CN1Cc1ccc2c(c1)OCO2 (configuration not stated)
 : -17%	-26%
COc1cccc(C(C(=O)NCc2ccccc2)N2CCN(c3ccccc3F)CC2)c1OC (configuration not stated)
 : -15%	u
